# Screens: PubChem BioAssay, National Center for Advancing Translational Sciences (NCATS)
# EPAC2 antag: human EPAC2 antagonism, validation | AID 1645886 | 16,000 tested, 1.7% active | Q8WZA2 | EPAC2 Rap1B BODIPY-GDP exchange, fluorescence | Potency, µM (doses to about 112 µM), for inactives: at the highest dose activity, negative = inhibition, actives largely listed as inhibitors; active = well fitted inhibition curve with a large enough effect; inconclusive = small, poorly fitted or top-dose-only effect; inactive = no such curve, though single readings can be large or run the other way;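 note: 100% = activation by cAMP agonist control; nearly all actives have a fitted effect of over 40% in size; the record reuses the description of the EPAC1 agonist screen; inactives centre near -10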
# Target sequence (Q8WZA2 whole entry, looked up): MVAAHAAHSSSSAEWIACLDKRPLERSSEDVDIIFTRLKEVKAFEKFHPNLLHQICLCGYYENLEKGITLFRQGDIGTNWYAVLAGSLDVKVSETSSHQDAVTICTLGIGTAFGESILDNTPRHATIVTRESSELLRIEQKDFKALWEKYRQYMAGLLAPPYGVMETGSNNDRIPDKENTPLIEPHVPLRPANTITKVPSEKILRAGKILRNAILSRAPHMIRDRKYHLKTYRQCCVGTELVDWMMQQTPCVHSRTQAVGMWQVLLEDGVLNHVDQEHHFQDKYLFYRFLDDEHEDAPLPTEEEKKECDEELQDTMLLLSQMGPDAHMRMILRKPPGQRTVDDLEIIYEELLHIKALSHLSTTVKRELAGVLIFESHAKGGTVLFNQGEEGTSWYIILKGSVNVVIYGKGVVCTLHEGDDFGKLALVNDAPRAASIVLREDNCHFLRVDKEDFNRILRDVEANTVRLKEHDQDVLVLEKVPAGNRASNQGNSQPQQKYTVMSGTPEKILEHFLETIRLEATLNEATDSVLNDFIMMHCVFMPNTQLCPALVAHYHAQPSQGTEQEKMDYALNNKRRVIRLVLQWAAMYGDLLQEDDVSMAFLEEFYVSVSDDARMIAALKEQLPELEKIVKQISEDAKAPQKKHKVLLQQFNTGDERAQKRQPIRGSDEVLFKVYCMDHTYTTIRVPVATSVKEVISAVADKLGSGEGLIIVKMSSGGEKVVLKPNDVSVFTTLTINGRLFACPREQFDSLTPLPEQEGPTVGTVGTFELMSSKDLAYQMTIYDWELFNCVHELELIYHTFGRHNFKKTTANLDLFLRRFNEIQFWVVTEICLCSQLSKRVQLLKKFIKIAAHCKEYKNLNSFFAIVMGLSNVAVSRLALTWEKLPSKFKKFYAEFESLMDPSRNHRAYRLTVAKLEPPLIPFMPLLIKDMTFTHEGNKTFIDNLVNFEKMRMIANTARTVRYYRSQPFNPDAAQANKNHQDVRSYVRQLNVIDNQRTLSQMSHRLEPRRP
#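 Fluorescent exchange read-out: 100 nM EPAC2 with 250 nM RAP1B–BODIPY-GDP and 50 uM GDP; BODIPY-GDP release lowers fluorescence. Read at 480/540 nm every 5 min for 30 min at room temperature; normalized to 6.5 mM cAMP.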
# Numbers without * were called inactive; ? = inconclusive; & = joins results of further samples; ! = not confirmed by another sample; [ ] = remark or other dose. Potency is the fitted concentration of half-maximal effect.
SMILES,EPAC2 antag
COCC(=O)N1CCC2(CCCN(c3ccccn3)C2)CC1,-12%
Cn1c(=O)c2[nH]cnc2n(C)c1=O,-18%&-2%&-9%&0%&-18%
CC(=O)NCCNc1ncnc2ccc(-c3ccccc3C(F)(F)F)cc12,-24%
NC(=O)OC[C@@H]1[C@H](NC(=O)/C(=N\OCC(=O)O)c2csc(N)n2)C(=O)N1S(=O)(=O)O,-23%
O=C(C[n+]1cccc2cccc(O)c21)c1ccc(F)cc1,-22%
O=C1NC(=O)C(Cc2ccccc2F)(C2CCN(Cc3cccn3-c3cccnc3)CC2)N1 (stereo unspecified),11%
COc1cc(CN2CCCC(n3cc(C(=O)N4CCCC4)nn3)C2)cc(OC)c1 (stereo unspecified),-6%
O=C(NCC1Cc2cccc(-c3ncccn3)c2O1)c1cccc(-c2ccccc2F)c1 (stereo unspecified),-2%
CCOC(=O)/C=C/c1ccc2oc3ccccc3c(=O)c2c1,-15%
O=C(O)c1cc2cc(Cl)ccc2[nH]1,-7%
CC(=O)OC/C=C(C)/C=C/C=C(C)/C=C/C1=C(C)CCCC1(C)C,?
CCCCc1c(C)nc2c(OC)cccc2c1SCC(=O)O,10%
CC(=O)N[C@@H](C)C(=O)NCC1Cc2cccc(-c3ccccc3C(F)(F)F)c2O1 (stereo partly specified),-25%
COc1ccc(N2C(=O)[C@@H]3C[C@H]2CN3Cc2cccn2-c2nccs2)cc1Cl,-21%
c1ccc2c(NCCN3CCOCC3)nc(-c3ccc4c(c3)OCO4)nc2c1,-26%
N#Cc1ccc(CN2CCCC3(CCN(S(=O)(=O)c4ccccc4)CC3)C2)cc1,-30%
CNc1nc(-c2c(C)noc2C)nc2ccccc12,-9%
C[C@@H](/C=C\c1cccc(Oc2ccc(F)cc2)c1)N(O)C(N)=O,25µM*
COc1ccc(CCCO[C@@H](Cn2ccnc2)c2ccc(OC)cc2)cc1,?
Cc1cc(=O)c2c(O)c3c(O)cc(=O)c4c3c3c(cc(O)c1c23)C(C)(C)C=4O,63%&57%[activator]
O=C1CN(/N=C/c2ccc(-c3ccc([N+](=O)[O-])cc3)o2)C(=O)N1,-18%[151 µM]
CCCC[C@H]1COCCS(=O)(=O)N1Cc1ccccc1F,?
NC[C@@H]1O[C@H](C23CC4CC(CC(C4)C2)C3)Cc2c1ccc(O)c2O,-16%&17%&-25%
COc1cc2oc(-c3ccccc3)cc(=O)c2cc1OC,-26%
COC(=O)Nc1nc2ccc(C(=O)c3cccs3)cc2[nH]1,79µM*!
CCCCCCCCN1[C@@H](CC(=O)OC)c2ccc(/C=C/C(=O)OC)cc2S1(=O)=O,-21%
CN1C(=O)C[C@@H](C(=O)N[C@@H](Cc2cnc[nH]2)C(=O)N2CCC[C@H]2C(N)=O)NC1=O,22%
O=C1CCNCCN1[C@H](CO)c1ccccc1,-19%
O=C(C[n+]1cccc2ccccc21)c1ccc(F)cc1,9%
CN1CCN(c2ncc3ncc(=O)n(C[C@H]4CCCO4)c3n2)CC1,-18%
COc1ccc(CNc2ccnc(-c3cccc(C#N)c3)n2)c(OC)c1,-51%
CC(=O)NC(CC(=O)O)C(=O)NC(CCC(=O)O)C(=O)O (stereo unspecified),3%
COc1ccc2[nH]cc(CCNc3cc(-c4ccccc4C)ncn3)c2c1,?
CC(=O)Nc1ccc(OC[C@@H](O)CNC(C)C)cc1,-21%
COc1ccc(CN2CCOc3ccc(C(O)c4cccnc4)cc3C2)cc1O (stereo unspecified),?
CC(=O)NCCc1c(Cc2ccccc2)[nH]c2ccccc12,?
COc1cccc(Cn2c(=O)c(CCc3ccccc3)nc3cncnc32)c1,-33%
Cc1cccc(-c2cc(=O)c3cc(C)ccc3o2)c1,-24%
COc1ncc2nc(CCc3ccccc3)c(=O)n(Cc3cccs3)c2n1,-27%
COc1ccc(C(=O)N2CCC3(CC2)CN(c2ncccn2)C3)cc1,-27%
COC(=O)[C@@H]1[C@@H]2C[C@H]3c4[nH]c5ccccc5c4CCN3C[C@@H]2CC[C@@H]1O,?
COc1ncc2nc(-c3cccs3)c(=O)n(C)c2n1,-30%
CCC(C)(C)c1ccc(CC(C)CN2C[C@@H](C)O[C@@H](C)C2)cc1 (stereo partly specified),-13%
O=c1[nH]/c(=C/c2ccc3c(c2)OCO3)c(=O)[nH]/c1=C/c1ccc2c(c1)OCO2,16%
COc1ccc(CN2CCC3(CCC(CNC(=O)C4CCCO4)O3)CC2)c(C)c1C (stereo unspecified),8%
CC(C)C[C@@H](CN=[N+]=[N-])N1CCN(CCc2ccccc2)CCC1=O,18%
COc1ccc(NC(=O)N2CC[C@@]3(CCCN(C(=O)c4c(C)noc4C)C3)C2)cc1,-22%
COc1ccc(C2CC(=O)c3c(O)cc(OC4OC(COC5OC(C)C(O)C(O)C5O)C(O)C(O)C4O)cc3O2)cc1O (stereo unspecified),-11%
C[C@@H]1O[C@@H](OC[C@H]2O[C@@H](Oc3c(-c4cccc(O)c4O)oc4cc(O)cc(O)c4c3=O)[C@H](O)[C@@H](O)[C@@H]2O)[C@H](O)[C@H](O)[C@H]1O,-21%
C=CCSSSCC=C,9%
CCc1oc2ccccc2c1C(=O)c1cc(Br)c(O)c(Br)c1,45µM*
COc1cccc(C(=O)O[C@H]2[C@H](Cc3ccccc3)NS(=O)(=O)[C@H]3C[C@@H]4C=C[C@]23O4)c1,-22%
COc1c(N2C[C@@H]3CCCN[C@H]3C2)c(F)cc2c(=O)c(C(=O)O)cn(C3CC3)c12,11%&17%
C=C1CC[C@H](O)C/C1=C\C=C1/CCC[C@]2(C)[C@@H]([C@H](C)CCCC(C)C)CC[C@@H]12,?
COc1ccc(-n2c(CNC(=O)c3ccccc3C(F)(F)F)nnc2SC)cc1,-13%
C/C(N[C@@H]1CSCC1O)=C1/C(=O)CC2[C@@H]1C2(C)C (stereo partly specified),2%
Cc1nc(NCc2cnn(C)c2C)sc1-c1ccn(CC2COc3ccccc3O2)n1 (stereo unspecified),-12%
O=C1CC(C(=O)N2CCCC(c3nc(-c4ccncc4)ncc3-c3ccccc3)C2)C2(CCCCC2)O1 (stereo unspecified),0%
COc1c2c(c(C(=O)/C=C/C(C)=C/c3ccccc3)c3c1OCO3)CCN(C)C2,?
COc1ccc(CNc2ncncc2-c2ccc(C(=O)N(C)C)cc2)c(OC)c1,-37%
# The results go on.
SMILES,EPAC2 antag
COc1cc2ncnc(Nc3cccc(Br)c3)c2cc1OC,-18%
O=C1CCN(Cc2ccccc2)CCN1CCSc1ccccc1,-25%
COCC(=O)N1CCC[C@@]2(CCN(C(c3ccccc3)c3ccccc3)C2)C1,-25%
CCCCCCCCCCCCCC(=O)N[C@@H](C)[C@H](O)c1ccccc1,-7%[11.4 µM]
Cc1cccnc1-c1cccc2c1OC(CNC(=O)/C=C/c1cccs1)C2 (stereo unspecified),-14%
CCCCCCCCCCCCCCCC(=O)NCCO,?
CC1(C)OC2C[C@](O)(C(N)=O)C[C@H](O)[C@H]2O1 (stereo partly specified),-4%
COc1ccc(C2Oc3cc(OC)cc(OC)c3CC2O)cc1 (stereo unspecified),-23%
CC1=C(C(=O)OCc2ccc3nsnc3c2)N2C(=O)[C@@H](NC(=O)OCc3ccc4nsnc4c3)[C@H]2SC1,12%
Oc1cccc2c(CC(O)c3c[nH]c4ccccc34)ccnc12 (stereo unspecified),-23%
CC(C)NC[C@H](O)c1ccc2ccccc2c1,-19%
COC(=O)N1CCC2(CC1)CN(C(=O)Nc1cccc(C#N)c1)C2,-13%

# A portion of the results above, as a working copy:
SMILES,EPAC2 antag
CCCCCCCCCCCCCC(=O)N[C@@H](C)[C@H](O)c1ccccc1,-7%[11.4 µM]
Cc1cccnc1-c1cccc2c1OC(CNC(=O)/C=C/c1cccs1)C2 (stereo unspecified),-14%
CCCCCCCCCCCCCCCC(=O)NCCO,?

# More compounds follow:
SMILES,EPAC2 antag
C=C[C@](C)(O)CCC1C(=C)CC(O)C2C(C)(C)CCCC12C (stereo partly specified),?
COCCn1c(=O)c(C)nc2cnc(Oc3cccc(Cl)c3)nc21,-12%
O=C(O)c1cc(N=Nc2ccc(O)c(C(=O)O)c2)ccc1O,?
COc1cc(=O)n(C)c2c(OCC3OC(C)(C)OC3(C)C)cccc12 (stereo unspecified),-10%
CCOC(=O)[C@H](CCc1ccccc1)N[C@H]1CCc2ccccc2N(CC(=O)O)C1=O,-19%
O=C(Nc1nccs1)[C@@H]1CC=C[C@@H]2CCN(C3CC3)C(=O)[C@@H]21,-24%
COc1cc2c(C)c3c4c(cc(OC)c(OC)c4c2cc1OC)CCN3C,?
COc1ccc(CNc2nc(-c3c(C)noc3C)nc3ccccc23)c(OC)c1,-31%
CN1CCCC2(CCN(C(=O)c3cnccn3)CC2)C1,-17%
CCCNC(=O)NS(=O)(=O)c1ccc(Cl)cc1,-16%&-5%&-7%
CCCCCCCCCCCCCCCCCCNC(=O)OC1CCN(C(=O)OC[C@H](COC(=O)N(Cc2cccc[n+]2CC)C(=O)c2ccccc2OC)OC)CC1,24%
COc1ccc(C(=O)N2CCC3(CC2)CN(CC(C)C)C3)cc1,?

# 3 entries picked at random from those above, as already listed:
SMILES,EPAC2 antag
CN1CCCC2(CCN(C(=O)c3cnccn3)CC2)C1,-17%
CCOC(=O)[C@H](CCc1ccccc1)N[C@H]1CCc2ccccc2N(CC(=O)O)C1=O,-19%
COc1ccc(C(=O)N2CCC3(CC2)CN(CC(C)C)C3)cc1,?

# (next part)
SMILES,EPAC2 antag
C=Cc1c(C)c2cc3[nH]c(cc4nc(cc5nc(cc1[nH]2)C(C)=C5CCC(=O)O)C(CCC(=O)O)=C4C)c(C)c3C=C,14%&-7%&8%
OCc1ccccc1,-11%
COc1ccc(-c2c(O)c3c(OC)c4c(cc3oc2=O)OC(C)(C)CC4)cc1,-10%
Cn1c(=O)c(-c2cccc(F)c2)nc2cncnc21,-11%
COc1ccccc1-c1nc(NCCN2CCOCC2)c2ccccc2n1,-8%
CC(=O)S[C@@H]1CC2=CC(=O)CC[C@]2(C)[C@H]2CC[C@@]3(C)[C@@H](CC[C@@]34CCC(=O)O4)[C@H]12,27%
CCOC(=O)C1=C(C)NC(C)=C(C(=O)OCC)C1c1c(F)c(F)c(F)c(F)c1F,35µM*
O=S(=O)(c1ccccc1)N1CCC2(CCCN(c3ccccn3)C2)CC1,?
Cc1cccc(CNc2ncnc3ccc(-c4ccc5c(c4)OCO5)cc23)c1,-16%
CNc1cc(-c2ccccc2C)ncn1,-21%
O=C(c1ccccc1)c1ccccc1,-5%
O=C(O)/C=C/c1ccc(Cn2ccnc2)cc1,-7%[56.6 µM]

# Of the compounds above, four have a thiophene ring, fused or not.
SMILES,EPAC2 antag
COC(=O)Nc1nc2ccc(C(=O)c3cccs3)cc2[nH]1,79µM*!
COc1ncc2nc(CCc3ccccc3)c(=O)n(Cc3cccs3)c2n1,-27%
COc1ncc2nc(-c3cccs3)c(=O)n(C)c2n1,-30%
Cc1cccnc1-c1cccc2c1OC(CNC(=O)/C=C/c1cccs1)C2 (stereo unspecified),-14%

# The list goes on:
SMILES,EPAC2 antag
Cc1csc(-c2nc3ccccc3n2C)n1,-11%
O=C(NCC1(N2CCOCC2)CCCCCC1)c1cnn(-c2nccc(-c3ccco3)n2)c1C1CC1,-15%
COCC(=O)N1CCC2(CCCN(c3ccccc3)C2)CC1,-12%
COC(=O)C[C@](O)(CCCC(C)(C)O)C(=O)O[C@@H]1C(OC)=CC23CCCN2CCc2cc4c(cc2[C@H]13)OCO4 (stereo partly specified),33%
O=C(NCCc1nnc2n1CCN(Cc1ccsc1)CC2)c1ccc(F)cc1,-4%
COc1cc2nc(N3CCN(C(=O)C4CCCO4)CC3)nc(N)c2cc1OC (stereo unspecified),-5%&-15%
CC(=O)OC1CCC2(O)CC1(C)CCC1C2CC1(C)C (stereo unspecified),?
NC(CSCSCC(N)C(=O)O)C(=O)O (stereo unspecified),-2%
Cn1cccc1C(=O)N1CCC2(CC1)CN(C(=O)Nc1cccc(C#N)c1)C2,-27%
CCC(CCC(C)C1CCC2C3CC=C4CC(OC(C)=O)CC[C@@]4(C)C3CC[C@@]12C)C(C)C (stereo partly specified),-12%
CCCC[P+](CCCC)(CCCC)Cc1ccc(NC(=O)[C@@H](Cc2ccc3ccccc3c2)NC(=NC2CCCCC2)NC2CCCCC2)cc1,-13%
CC/C=C\C/C=C\C/C=C\CCCCCCCCCC(=O)O,-6%[11.4 µM]
O=c1c(-c2cc(F)cc(F)c2)nc2cnc(N3CCOCC3)nc2n1Cc1cccs1,-2%
COCC(=O)N1CCC2(CC1)CN(Cc1ccc(C#N)cc1)C2,-19%
O=C1CC(C(=O)N2CCOc3ccc(CN4CCC(Oc5cccnc5)CC4)cc3C2)c2ccccc21 (stereo unspecified),-18%
CC(=O)[C@@H]1[C@H]2[C@H](C(=O)[C@H]3OC[C@@H]2O3)[C@H]2C=Cc3ccccc3N21,11%
O=C(O)/C=C/C=C/c1ccccc1,-13%
O=C(c1ccco1)N1CCC[C@@]2(CCN(c3ccccc3)C2)C1,?
Cc1noc(C)c1-c1cncnc1-n1ccnc1,-8%
O=c1cc(-c2ccccc2O)oc2ccc3ccccc3c12,-10%
NNC(=O)c1ccncc1,-16%&-29%&-12%

# The list is partial; rates above refer to the full screens.
